gsp antagonist: gsp mutant antagonism. gsp-mutant cells, cAMP HTRF, 30 min; control for the full effect not named in the record. Potency, µM (top dose mostly 76.9 µM), for the others: top-dose activity change, negative = inhibition, hits mostly inhibitors. actives 0.4% (n = 340,000). AID 624288; active = falling curve of any shape with a large fitted effect; inconclusive = falling curve, mostly with a smaller effect; inactive = flat or rising curve; cell line not stated here;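 note: intracellular cAMP measured with PDE inhibitor Ro 20-1724 present during compound exposure; potency is the fitted concentration of half-maximal effect; % is set by controls: 0 for no effect and ±100 for the full control effect; nearly all actives have a fitted effect of over 65% in size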
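Cells in G418 medium, seeded 16-24 h, 37C; buffer exchange to DPBS + 1 mM CaCl2, 0.5 mM MgCl2, 0.05% BSA; cpds in DMSO + […] (300 uM stock), 30 min 37C; HTRF cAMP detection.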
Six1-Eya2 inh: blocks human Six1 binding to Eya2 | Q15475+O00167 | AlphaScreen GST-Six1/His-Eya2 binding, biochemical; active compounds read low; control for the full effect not named in the record | activity change, % (no concentration beside the values) | actives 0.56% (n = 360,000) | AID 651725; in the data active = activity change below about -65%; inconclusive = about -30% to -65%; inactive = above about -30%; note: % is set by controls: 0 for no effect and ±100 for the full control effect
Target sequence (O00167 whole entry, looked up): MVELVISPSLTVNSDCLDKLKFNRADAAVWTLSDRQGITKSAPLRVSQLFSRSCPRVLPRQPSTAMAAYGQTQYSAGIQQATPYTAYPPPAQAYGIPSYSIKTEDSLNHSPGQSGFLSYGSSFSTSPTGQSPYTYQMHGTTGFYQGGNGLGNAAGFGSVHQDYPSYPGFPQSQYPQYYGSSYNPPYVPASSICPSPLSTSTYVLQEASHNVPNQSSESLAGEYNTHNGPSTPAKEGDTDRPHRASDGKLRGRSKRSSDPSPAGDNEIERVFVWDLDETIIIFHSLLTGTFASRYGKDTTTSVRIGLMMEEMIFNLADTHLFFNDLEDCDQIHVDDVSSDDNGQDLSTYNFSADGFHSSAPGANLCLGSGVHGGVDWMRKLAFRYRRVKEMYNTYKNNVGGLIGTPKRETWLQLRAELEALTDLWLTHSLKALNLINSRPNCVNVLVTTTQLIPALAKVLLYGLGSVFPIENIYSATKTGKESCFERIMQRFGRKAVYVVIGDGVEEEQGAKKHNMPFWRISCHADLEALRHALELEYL
Target sequence (Q15475 whole entry, looked up): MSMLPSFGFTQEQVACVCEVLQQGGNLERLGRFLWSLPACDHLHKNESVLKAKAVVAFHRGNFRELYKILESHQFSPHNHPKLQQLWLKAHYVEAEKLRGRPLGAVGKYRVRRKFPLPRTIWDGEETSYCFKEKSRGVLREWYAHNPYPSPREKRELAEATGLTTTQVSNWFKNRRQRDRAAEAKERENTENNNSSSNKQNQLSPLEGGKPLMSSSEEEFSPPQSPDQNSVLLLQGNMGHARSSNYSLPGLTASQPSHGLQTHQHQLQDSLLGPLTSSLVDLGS
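AlphaScreen with GST-Six1 and His-Eya2 (5X mix: 250 nM and 500 nM), glutathione donor and nickel acceptor beads; buffer 50 mM Tris pH 8.0, 300 mM NaCl, 1 mM TCEP; 1 h at 37 C in the dark.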
D2 agonist: activates the human D2 dopamine receptor. P14416. DiscoveRx PathHunter D2 beta-arrestin, luminescence, 90 min; 100% = 57 uM dopamine signal. activation, % (test concentration not listed). actives 0.084% (n = 360,000); in the data active = activation above about 40%; inconclusive = about 15% to 40%; inactive = below about 15%; note: compound concentration not given in the record; the text of the record calls up to 30% inactive
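Agonist mode: compounds alone added to overnight-plated D2 PathHunter cells for 90 min at 37 C, with 57 uM final dopamine (EC100) defining full response. Beta-arrestin recruitment detected by chemiluminescent reagent, read after 1 h at ambient temperature.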
gsp agonist: gsp mutant agonism. gsp mutant cells, cAMP HTRF, 30 min; control for the full effect not named in the record. Potency, µM (highest dose often 76.9 µM), for inactives: at the highest dose activation (cAMP increase), most hits filed as activators. actives 0.13% (n = 340,000); active = well fitted activation curve with a large enough effect; inconclusive = small, poorly fitted or top-dose-only effect, or another doubt; inactive = no such curve, though single readings can be large or run the other way; cell line not stated here;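 note: phosphodiesterase inhibitor Ro 20-1724 added with compounds to block cAMP breakdown; potency is the fitted concentration of half-maximal effect; nearly all actives have a fitted effect of over 60% in size; about a fifth of the inactives were tested at one dose only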
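Cells in DMEM/10% FBS with G418 were pretreated with compounds in DMSO plus […] (300 uM stock) for 30 min at 37C. cAMP was measured by HTRF (cAMP-d2 plus anti-cAMP antibody-K) after 30 min at room temperature.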
D2 potentiator: potentiates the human D2 dopamine receptor allosterically; DiscoveRx D2 beta-arrestin cells, luminescence, 90 min; 100% = 57 uM dopamine signal; potentiation, % (test concentration not listed); actives 0.23% (n = 360,000); P14416; AID 624464; active = potentiation of 50% or more; inconclusive = 30% to 50%; inactive = 30% or less;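 note: compound concentration not given in the record; tested on top of an EC20 dose of dopamine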
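PathHunter D2 cells, attached overnight at 37 deg C, received compound in DMSO plus dopamine at EC20 (50 nM final) for 90 min at 37 deg C. Beta-arrestin recruitment was read as luminescence after 1 h with detection reagent at ambient temperature.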
CtBP-E1A inh: inhibitors of CtBP/E1A interaction; AlphaScreen GST-E1A/His-CtBP binding, 1536-well; active compounds read low; control for the full effect not named in the record; actives 0.49% (n = 340,000); activity change, % (test concentration not listed); in the data active means activity change below about -65%; inconclusive means about -30% to -65%; inactive means above about -30%; note: % is set by controls: 0 for no effect and ±100 for the full control effect
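Homogeneous bead-based format: GST-tagged E1A captured on glutathione donor beads, His-tagged CtBP on nickel acceptor beads; compounds precede bead addition by 2 h at 37 °C.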
Active calls of the source: *; ? = inconclusive; . = no result given; [ ] = dose if it differs, or a comment.

SMILES	gsp antagonist	Six1-Eya2 inh	D2 agonist	gsp agonist	D2 potentiator	CtBP-E1A inh
Cc1c(NC(=O)C(C)N2CC(C)OC(C)C2)c(=O)n(-c2ccccc2)n1C (stereo not drawn)	10%	4	-4.4	?	-5	8
O=C(COc1ccc2ccccc2c1)Nc1ccc2c3c(cccc13)CC2	1%	3	-2.2	-70%[inhibitor]	-3	-23
Cc1coc2cc3oc(=O)cc(C)c3cc12	-3%	5	4.1	7%	-11	-7
O=C(/C=C/c1ccc(O)c(O)c1)OCCc1ccccc1	1%	-26	0.1	.	4	0
N#CCCN(Cc1ccccc1)C(C(=O)NC1CCCCC1)c1cc2ccccc2o1 (stereo not drawn)	.	-2	2.3	.	-3	1
O=C(NC1CCCCCC1)c1ccc(Br)o1	7%	1	-2.5	10%	-7	3
CC1=CC(c2ccc(Cl)cc2)n2nc(NC(=O)CCCC(=O)O)nc2N1 (stereo not drawn)	-6%	-26	-2.0	3%	-2	?
CCN(CC)S(=O)(=O)c1ccc(-n2cnc3cc(C)c(C)cc32)nc1	.	0	-0.7	11%[15.4 µM]	-10	3
COc1ccc(C(=O)CSc2cc(C)[nH]c(=O)n2)cc1	-1%	-2	2.1	?	-9	.
Cc1c(NC(=O)C(C)Sc2ncnc3ccccc23)c(=O)n(-c2ccccc2)n1C (stereo not drawn)	2%	4	-2.1	?	6	16
C[C@H](NC(=O)CC[C@H]1O[C@@H](n2ccc(=O)[nH]c2=O)[C@H](O)[C@@H]1O)c1cccc2ccccc12	.	-1	1.1	.	-2	3
C/C(=N/NS(=O)(=O)c1ccc(C)cc1)c1cccc(NC(=O)c2cccc(Cl)c2)c1	-32%	-6	-4.2	-22%	-21	1
O=C(Nc1ccc(CCC(=O)N2CCCC2)cc1)c1ncn[nH]1	-7%	-15	-0.6	-33%	25	-19
COc1cccc(NC(=O)[C@H](C)NC(=O)N2CCn3c2nc2ccccc23)c1	-10%	-1	1.0	0%	10	-1
CC(C)(C)OC(=O)N1CCc2onc(-c3ccccc3F)c2C1=O	.	2	-2.2	-51%	.	-1
Cc1nonc1CC(=O)N1CCc2c([nH]c3ccccc23)C1c1ccccc1F (stereo not drawn)	-14%	-7	-4.1	17%[15.4 µM]	-7	-4
CC(NC(=O)CN1CCOCC1)c1ccc(F)cc1 (stereo not drawn)	9%	3	-2.5	16%	-9	-6
COc1cc(CNc2ccc3[nH]c(=O)[nH]c3c2)ccc1OCc1ccc(F)cc1	0%	-12	-0.3	-4%	-4	-2
COC(=O)CSc1nnc(-c2ccccc2OC)n1-c1ccc(C)cc1	-15%	4	1.7	2%	-4	-4
CCOc1ccc(NC(=O)CN(C)C(=O)c2cccc(S(=O)(=O)N3CCN(C)CC3)c2)cc1OCC	13%	-1	-5.5	18%	-6	-9
CC(=O)Oc1ccc(N2C(=O)C3C4C=CC(O4)C3C2=O)cc1 (stereo not drawn)	1%	-2	0.9	1%	-7	9
C[C@H](O)[C@@H]1C(=O)N2CCc3c([nH]c4ccccc34)[C@@H]2C[C@@H]1N(C)C(=O)Nc1cccc2ccccc12	.	-6	9.0	.	21	-1
O=C(NCC(O)c1nc2ccccc2[nH]1)c1cc2ccccc2[nH]1 (stereo not drawn)	.	21	-4.1	.	-7	6
O=C(c1ccc(C(F)(F)F)cc1)C1CCCN(C(=O)Cn2cnnn2)C1 (stereo not drawn)	7%	0	-2.1	-6%	-28	2
CCOC(=O)N1CCC(NC(=O)C2CCC(CNS(=O)(=O)c3ccc(OC)cc3)CC2)CC1 (stereo not drawn)	11%	11	-4.2	1%	4	5
O=C(CSc1nnnn1-c1ccc(O)cc1)c1ccc(F)cc1	8%	2	1.6	3%	-13	.
CC1=Nc2ccccc2/C1=C/c1c(N)n2c(S(=O)(=O)C(C)C)nsc2nc1=O	?	-19	-1.2	-1%[15.4 µM]	0	-9
COc1ccc(NC(=O)COC(=O)C2CCC(C(C)(C)C)CC2)c([N+](=O)[O-])c1 (stereo not drawn)	5%	-22	-2.5	-23%	-12	-25
Cc1cc(=O)c2ccccc2n1CC(=O)NCc1ccccc1	-8%	-1	-2.6	-4%	8	1
O=C(Nc1nccs1)[C@@H]1CCCN1S(=O)(=O)c1ccccc1F	7%	7	-2.6	7%[15.4 µM]	5	2
CCCCNC(=O)c1c(CSc2ccccc2)noc1C(=O)NCc1ccccc1	-7%	17	1.3	9%	-9	-19
CCC(OC(=O)CC1Sc2ccccc2NC1=O)C(=O)NCC1CCCO1 (stereo not drawn)	-21%	-2	-4.7	?	0	-2
COc1ccccc1N1C(=O)CC(Sc2nc(C)cc(C)n2)C1=O (stereo not drawn)	-1%	6	4.8	-11%	11	8
Cc1c(CCC(=O)O)c(=O)oc2c(C)c(OCc3cc4c(cc3Cl)OCO4)ccc12	-17%	2	-18	7%[15.4 µM]	-2	-30
CC(=O)c1c(C)[nH]c(C(=O)CSc2nc3ccccc3c(=O)n2CCCO)c1C	-12%	-10	2.1	-4%	3	-6
CC(=O)Nc1ccc(NC(=O)c2ccccc2F)cc1	-1%	-2	-1.2	-43%[inhibitor]	-5	-2
O=C(COC(=O)c1c(Cl)cccc1Cl)Nc1cccc(S(=O)(=O)NC2=NCCCCC2)c1	-15%	-4	2.7	-8%	3	-3
COc1ccc(-c2nn(-c3ccccc3)cc2C2CC(c3cccs3)=NN2C(=O)CCCC(=O)O)cc1 (stereo not drawn)	?	-9	-0.9	-12%	11	-3
Nc1nonc1/C(=N/O)N1CCN(CCO)CC1	2%	6	0.5	-3%	-13	3
COc1ccc(C(=O)COC(=O)c2ccc3ccccc3n2)cc1	7%	-7	-0.8	29%	-7	-6
CC(C)c1ccc(C(=O)NNC(=O)c2n[nH]c(=O)c3ccccc23)cc1	10%	-1	-0.7	-21%	0	-8
COc1cc(C(=O)Oc2cc(N)n(S(=O)(=O)c3ccccc3)n2)cc(OC)c1OC	2%	-11	-3.8	4%[15.4 µM]	-6	3
COC(=O)c1ccccc1NC(=O)Cn1cnc2cc(C)c(C)cc21	-18%	-2	-8.1	-5%	-15	23
Cc1ccc(-c2ccc(CN3C(CC(C)C)C(=O)N(Cc4cn(CCC5OCCO5)nn4)CCS3(=O)=O)cc2)cc1 (stereo not drawn)	.	-2	-0.2	0%	-14	1
COc1cc(/C=C2/C(=N)N3C(=NC2=O)SN=C3S(=O)(=O)C(C)C)ccc1OC(=O)c1ccco1	-7%	-8	-7.6	2%	-3	.
CCOc1ccc(-c2nnc(N3CCOCC3)c3ccccc23)cc1	-15%	1	1.6	3%	8	3
COc1ccc(COC(=O)C2=C(C)NC(=O)NC2c2ccc(OC)cc2)cc1 (stereo not drawn)	-16%	-3	-0.1	?	-1	9
COc1ccc(C)cc1-n1c(SCC(=O)Nc2cc(C)on2)nc2ccccc2c1=O	8%	-14	2.4	-6%[15.4 µM]	6	8
CC(C)c1ccc(/C=C/C(=O)N2CCCCCC2)cc1	3%	8	-1.0	?	0	-2
Cc1nnn(C23CC4CC(CC(CC(=O)Nc5cccc(F)c5)(C4)C2)C3)n1	-2%	-5	-1.7	?	-2	10
CC(C)OC(=O)c1cn(-c2ccccc2)nc1-c1ccc2c(c1)OCCO2	-18%	4	-2.1	-31%[inhibitor]	1	9
COc1ccc(OC)c(N=c2oc3c(OC)cccc3cc2C(=O)NCc2ccco2)c1	2%	5	-1.9	-45%[inhibitor]	-3	-4
O=C(CN1C2=NCCCN2c2ccccc21)c1ccc2c(c1)OCO2	1%	-1	-1.8	-37%[inhibitor]	-19	7
Cc1nn(Cc2ccc(Cl)cc2Cl)c(Cl)c1/C=C/C(=O)OCC(=O)NCC(F)(F)F	-11%	27	-4.3	-4%	18	19
O=C(/C=C/c1ccco1)N1CCN(S(=O)(=O)c2ccc(F)c(F)c2F)CC1	4%	23	-1.2	-10%[15.4 µM]	-11	-16
CCOc1ccc(N(CC(=O)NCc2ccccc2OC)S(C)(=O)=O)cc1	-3%	-3	-3.2	-32%[inhibitor]	-13	9
CCN(CC(=O)Nc1ccc(OC)cc1)C(=O)CSCc1c(C)noc1C	7%	-2	-5.7	15%	-3	9
COc1cc(-c2nn3c(-c4cccnc4)nnc3s2)cc(OC)c1OC	1%	-19	-0.4	29%	-9	-18
COC(=O)c1cc(COC(=O)c2cccnc2SC)oc1C	-28%	2	-4.8	-2%	6	21
Cc1ccc(S(=O)(=O)N2CCOCC2)cc1C(=O)OCC(=O)N1CCCC1=O	2%	1	-1.9	?	-4	-2

Other entries:
SMILES	gsp antagonist	Six1-Eya2 inh	D2 agonist	gsp agonist	D2 potentiator	CtBP-E1A inh
Cc1cc(C(=O)COC(=O)CCC(=O)c2ccc3c(c2)OCCO3)c(C)n1Cc1ccco1	-6%	-8	-3.9	-34%[inhibitor]	-6	-13
Fc1ccccc1CCNc1c2c(nc3ncnn13)CCCC2	-22%	-5	7.0	15%	-2	-11
COc1cc(CNC2CCCCCC2)cc(OC)c1O	4%	2	-2.4	-6%	-14	1
O=C(NCCNCC(O)COc1ccc(O)cc1)N1CCOCC1 (stereo not drawn)	8%	1	-2.5	.	-31	1
Cc1nn(CC(=O)Nc2ccc3nc4n(c(=O)c3c2)CCCC4)c(C)c1[N+](=O)[O-]	2%	3	3.1	-23%	-6	.
O=C(O)c1cc(NCc2ccc(F)cc2)ccc1N1CCOCC1	6%	-3	-2.6	0%	-1	3
CSCCC(NC(=O)c1ccccc1)C(=O)N/N=C(\C)c1ccccc1 (stereo not drawn)	14%	-4	-5.0	-79%[inhibitor]	-10	1
CC(C)C(NC(=O)c1ccc(Br)cc1)C(=O)NC1=NCCS1 (stereo not drawn)	8%	3	-2.3	-40%[inhibitor]	-3	-3
CC(C)(C)OC(=O)N1CCCC1C(=O)NCCc1ccccc1 (stereo not drawn)	-2%	0	-3.3	-8%	-11	0
COc1ccc(C(=O)Nc2ccccn2)cc1	10%	7	0.6	-3%	-8	6
COc1ccc(C2C3=C(CCCC3=O)Nc3n[nH]c(C)c32)cc1OC (stereo not drawn)	15%	16	-0.5	-13%[15.4 µM]	0	0
CSc1cccc(NCc2ccc([N+](=O)[O-])cc2)c1	6%	34	-0.7	6%	5	-19

Some of the entries above, set out differently.
Molecule | gsp antagonist | Six1-Eya2 inh | D2 agonist | gsp agonist | D2 potentiator | CtBP-E1A inh
COc1ccc(C2C3=C(CCCC3=O)Nc3n[nH]c(C)c32)cc1OC (stereo not drawn) | 15% | 16 | -0.5 | -13%[15.4 µM] | 0 | 0
CC(C)(C)OC(=O)N1CCCC1C(=O)NCCc1ccccc1 (stereo not drawn) | -2% | 0 | -3.3 | -8% | -11 | 0
COc1ccc(C(=O)Nc2ccccn2)cc1 | 10% | 7 | 0.6 | -3% | -8 | 6
O=C(NCCNCC(O)COc1ccc(O)cc1)N1CCOCC1 (stereo not drawn) | 8% | 1 | -2.5 | . | -31 | 1
CSCCC(NC(=O)c1ccccc1)C(=O)N/N=C(\C)c1ccccc1 (stereo not drawn) | 14% | -4 | -5.0 | -79%[inhibitor] | -10 | 1

Compounds were not picked by outcome. About 1.4% of those tested had a hit in this group.
